Screens as filed in PubChem.
NOMO-1 viab: STK33 inhibitor candidate reducing NOMO-1 cell viability | AID 2330 | NOMO-1 AML viability, CellTiter-Glo luminescence, 72 h | inhibition, % (concentration not given with the values) | hit rate 7.5% among 37,000;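 active = most replicates above 80%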;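 also: wells of about 30 µL received 25 nL stock; 0% = median of vehicle wells and 100% = reference inhibitor level; the first replicate is given; inactives centre near 10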
Starred values were filed as active, the others as inactive. Some of the compounds tested, so the mix of outcomes need not match the whole.

SMILES	NOMO-1 viab
CC1(C)CC[C@]2(C(=O)O[C@@H]3O[C@H](CO)[C@@H](O)[C@H](O)[C@H]3O)CC[C@]3(C)C(=CCC4[C@@]5(C)C[C@@H](O)[C@H](O)[C@@](C)(CO)C5CC[C@]43C)C2[C@@H]1O (stereo partly specified)	49
Cc1ccc(S(=O)(=O)N(C)C[C@@H]2Oc3ccc(NC(=O)Nc4c(C)noc4C)cc3C(=O)N([C@@H](C)CO)C[C@@H]2C)cc1	-2
O=C(O)CCc1nn2c3ccccc3nc2n(-c2ccccc2)c1=O	-8
C[C@@H]1CN([C@@H](C)CO)C(=O)c2cc(NS(=O)(=O)c3cccs3)ccc2O[C@H]1CN(C)C(=O)Nc1ccc2c(c1)OCO2	12
COc1ccc(NC(=O)Nc2ccc3c(c2)C(=O)N([C@H](C)CO)C[C@@H](C)[C@@H](CN(C)C(=O)Nc2ccccc2)O3)cc1	19
N#Cc1c(NC(=O)COc2ccc(C(=O)NC3CCCCC3)cc2)sc2c1CCC2	58
C[C@@H]1CN([C@@H](C)CO)C(=O)c2cccc(N(C)C)c2O[C@H]1CN(C)Cc1ccc(C(=O)O)cc1	11
COc1ccc(NC(=O)CN(c2cccc(Cl)c2)S(C)(=O)=O)cc1	-5
C[C@H](CO)N1C[C@H](C)[C@H](CN(C)CC2CC2)Oc2ccc(NS(=O)(=O)c3ccccc3)cc2CC1=O	21
N#Cc1c(NC(=O)Cn2cnc3scc(-c4ccccc4)c3c2=O)sc2c1CCC2	-36
O=C1C=CC(O)(/C=C/C(=O)OC[C@H]2O[C@@H](Oc3ccc(O)cc3)[C@H](O)[C@@H](OC(=O)/C=C/C3(O)C=CC(=O)C=C3)[C@@H]2O)C=C1	87*
COc1ccc(CN(C)C[C@@H]2Oc3ccc(NC(=O)C4CC4)cc3CC(=O)N([C@H](C)CO)C[C@H]2C)cc1	20
COc1ccc(NC(=O)N(C)C[C@@H]2Oc3ccc(NS(=O)(=O)c4cccs4)cc3C(=O)N([C@H](C)CO)C[C@H]2C)cc1	-17
C[C@@H]1CN([C@H](C)CO)C(=O)c2cc(NC(=O)Nc3ccc(F)cc3)ccc2O[C@@H]1CN(C)C(=O)Nc1ccc(C(F)(F)F)cc1	48
C[C@@H]1CN([C@H](C)CO)C(=O)Cc2cc(NC(=O)c3ccncc3)ccc2O[C@H]1CN(C)S(C)(=O)=O	13
Cc1ccc(S(=O)(=O)N(C)C[C@@H]2Oc3ccc(NC(=O)Nc4ccc(F)cc4)cc3C(=O)N([C@@H](C)CO)C[C@H]2C)cc1	33
C[C@@H]1CN([C@H](C)CO)C(=O)c2cc(NC(=O)C3CCCCC3)ccc2O[C@H]1CN(C)C(=O)Nc1cccc2ccccc12	-6
O=c1nc(NCc2ccco2)sc2ncccc12	2
CCN(C(=O)CSc1nc2sc(C)c(C)c2c(=O)n1-c1ccccc1)c1ccccc1	43
COc1cccc(-c2nnc(SCC(N)=O)n2-c2ccc(Cl)cc2)c1	-5

10 consecutive entries already listed, for reference:
SMILES	NOMO-1 viab
C[C@H](CO)N1C[C@H](C)[C@H](CN(C)CC2CC2)Oc2ccc(NS(=O)(=O)c3ccccc3)cc2CC1=O	21
N#Cc1c(NC(=O)Cn2cnc3scc(-c4ccccc4)c3c2=O)sc2c1CCC2	-36
O=C1C=CC(O)(/C=C/C(=O)OC[C@H]2O[C@@H](Oc3ccc(O)cc3)[C@H](O)[C@@H](OC(=O)/C=C/C3(O)C=CC(=O)C=C3)[C@@H]2O)C=C1	87*
COc1ccc(CN(C)C[C@@H]2Oc3ccc(NC(=O)C4CC4)cc3CC(=O)N([C@H](C)CO)C[C@H]2C)cc1	20
COc1ccc(NC(=O)N(C)C[C@@H]2Oc3ccc(NS(=O)(=O)c4cccs4)cc3C(=O)N([C@H](C)CO)C[C@H]2C)cc1	-17
C[C@@H]1CN([C@H](C)CO)C(=O)c2cc(NC(=O)Nc3ccc(F)cc3)ccc2O[C@@H]1CN(C)C(=O)Nc1ccc(C(F)(F)F)cc1	48
C[C@@H]1CN([C@H](C)CO)C(=O)Cc2cc(NC(=O)c3ccncc3)ccc2O[C@H]1CN(C)S(C)(=O)=O	13
Cc1ccc(S(=O)(=O)N(C)C[C@@H]2Oc3ccc(NC(=O)Nc4ccc(F)cc4)cc3C(=O)N([C@@H](C)CO)C[C@H]2C)cc1	33
C[C@@H]1CN([C@H](C)CO)C(=O)c2cc(NC(=O)C3CCCCC3)ccc2O[C@H]1CN(C)C(=O)Nc1cccc2ccccc12	-6
O=c1nc(NCc2ccco2)sc2ncccc12	2

Going on with the list:
SMILES	NOMO-1 viab
Cc1cccc(N=Cc2c(O)n(-c3ccccc3)c(=O)c3ccccc23)c1	91*
O=C(Cn1nnc2sc3c(c2c1=O)CCCC3)NCc1ccco1	41
C[C@@H]1CN([C@H](C)CO)C(=O)c2cc(NS(=O)(=O)c3cn(C)cn3)ccc2O[C@H]1CN(C)S(=O)(=O)c1ccccc1	35
COc1ccc(S(=O)(=O)N(C)C[C@H]2Oc3c(NC(=O)c4cc(C)nn4C)cccc3C(=O)N([C@H](C)CO)C[C@H]2C)cc1	17
C[C@@H]1CN([C@H](C)CO)C(=O)Cc2cc(NC(=O)CCN3CCOCC3)ccc2O[C@H]1CN(C)Cc1ccc(-c2ccccc2)cc1	9
Cc1ccc(S(=O)(=O)Nc2ccc3c(c2)C(=O)N([C@H](C)CO)C[C@@H](C)[C@@H](CN(C)C(=O)NC(C)C)O3)cc1	-1
CC(C)NC(=O)N(C)C[C@@H]1Oc2c(NC(=O)Nc3ccc(F)cc3)cccc2C(=O)N([C@H](C)CO)C[C@@H]1C	22
Cc1ccc(S(=O)(=O)N(C)C[C@@H]2Oc3c(NC(=O)NC(C)C)cccc3C(=O)N([C@H](C)CO)C[C@H]2C)cc1	20
Cc1cc(C)n2nc(SCC(=O)c3ccc4c5c(cccc35)CC4)nc2n1	-9
COc1ccc(CN(C)C[C@H]2Oc3c(NS(=O)(=O)c4ccc(C)cc4)cccc3C(=O)N([C@@H](C)CO)C[C@@H]2C)cc1	15
COc1c(C(O)CC(C)C)ccc2c1C(=O)OCc1cc(C)cc(O)c1O2 (stereo unspecified)	41
CC(C)NC(=O)Nc1cccc2c1O[C@@H](CN(C)S(=O)(=O)c1cccs1)[C@@H](C)CN([C@H](C)CO)C2=O	-1
Cc1noc(C)c1S(=O)(=O)Nc1ccc2c(c1)C(=O)N([C@H](C)CO)C[C@@H](C)[C@H](CN(C)Cc1ccc3c(c1)OCO3)O2	10
Cc1ccc(NC(=O)CCN2C(=O)c3ccccc3S2(=O)=O)cc1Cl	-10
COc1ccc(CN(C)C[C@H]2Oc3ccc(NC(=O)Cc4cn(C)c5ccccc45)cc3CC(=O)N([C@@H](C)CO)C[C@@H]2C)cc1	37
O=C(CSc1nnc2ccccn12)Nc1c(Cl)cc(Cl)cc1Cl	1
Cc1noc(C)c1NC(=O)N(C)C[C@@H]1Oc2ccc(NC(=O)Nc3ccc(C(F)(F)F)cc3)cc2C(=O)N([C@H](C)CO)C[C@@H]1C	7
C[C@H](CO)N1C[C@H](C)[C@H](CN(C)C(=O)NC2CCCCC2)Oc2ccc(NC(=O)Cc3ccccc3)cc2CC1=O	-3
Cc1cccc(N(CC(=O)NC(C)(C)C)S(=O)(=O)c2ccc(Cl)cc2)c1	-10
Cc1noc(C)c1S(=O)(=O)N(C)C[C@@H]1Oc2c(NC(=O)c3ccc(-c4nccs4)cc3)cccc2C(=O)N([C@@H](C)CO)C[C@@H]1C	33
COc1cccc(OC)c1CN(C)C(=O)c1cnc(Oc2ccccc2)cc1C(F)(F)F	28
COc1ccc(NC(=O)CCC(=O)O)cc1	26
Cc1ccc(S(=O)(=O)Nc2cccc3c2O[C@@H](CN(C)S(=O)(=O)c2ccc(C)cc2)[C@H](C)CN([C@H](C)CO)C3=O)cc1	23
CC(C)NC(=O)N(C)C[C@@H]1Oc2ccc(NC(=O)Nc3ccc(C(F)(F)F)cc3)cc2CC(=O)N([C@@H](C)CO)C[C@@H]1C	-7
O=C(CN1C(=O)C2C3C=CC(C4CC34)C2C1=O)Oc1ccccc1C(=O)Oc1ccccc1 (stereo unspecified)	6
O=C(Nc1cccc(C(F)(F)F)c1)c1ccc(NCc2ccco2)c([N+](=O)[O-])c1	8
CNC[C@@H]1Oc2c(N)cccc2C(=O)N([C@@H](C)CO)C[C@@H]1C	11
COc1ccc(S(=O)(=O)Nc2cccc3c2O[C@@H](CN(C)S(=O)(=O)c2cccs2)[C@H](C)CN([C@@H](C)CO)C3=O)cc1	23
C[C@@H]1CCCCO[C@@H](CN(C)C(=O)c2ccccc2)[C@@H](C)CN([C@H](C)CO)C(=O)c2cc(NS(C)(=O)=O)ccc2O1	9
CC(C)NC(=O)Nc1ccc2c(c1)C(=O)N([C@@H](C)CO)C[C@H](C)[C@@H](CN(C)Cc1ccc(Cl)c(Cl)c1)O2	15
C[C@@H]1CN([C@H](C)CO)C(=O)c2cccc(NS(=O)(=O)c3cn(C)cn3)c2O[C@H]1CN(C)CC1CCCCC1	22
COc1ccc(CC(=O)NN2C(=O)CSCC2=O)cc1OC	3
O=C(CSc1nnc2sc3ccccc3n12)Nc1c(Cl)cccc1Cl	35
C[C@H](CO)N1C[C@H](C)[C@H](CN(C)Cc2ccc3c(c2)OCO3)Oc2ccc(NC(=O)C3CC3)cc2C1=O	27
C[C@@H]1CN([C@@H](C)CO)C(=O)c2cc(N(C)C)ccc2O[C@@H]1CN(C)S(=O)(=O)c1cccs1	-2
C[C@H](CO)N1C[C@H](C)[C@H](CN(C)S(=O)(=O)c2ccc(Cl)cc2)Oc2c(NC(=O)C3CCCCC3)cccc2C1=O	5
C[C@H]1CN([C@@H](C)CO)C(=O)c2cc(NC(=O)CCCCCC(=O)Nc3ccccc3N)ccc2O[C@@H]1CN(C)S(=O)(=O)c1ccc(Cl)cc1	-2
CC1(C)OC(=O)C=C[C@@]2(C)C1C[C@@H](O)[C@]1(C)C2CC[C@@]2(C)[C@H](c3ccoc3)OC(=O)C3OC321 (stereo partly specified)	-9
O=C(CSc1n[nH]c(-c2ccncc2)n1)Nc1cccc2ccccc12	18
C[C@H]1CN([C@@H](C)CO)C(=O)c2cc(NC(=O)Cc3cn(C)c4ccccc34)ccc2O[C@@H]1CN(C)S(=O)(=O)c1cn(C)cn1	19
C[C@@H]1CN([C@H](C)CO)C(=O)Cc2cc(NS(=O)(=O)c3cn(C)cn3)ccc2O[C@@H]1CN(C)Cc1ccc(-c2ccccc2)cc1	24
O=C(CCS(=O)(=O)c1ccc2ccccc2c1)Nc1ccccc1	-9
C[C@H]1CN([C@@H](C)CO)C(=O)Cc2cc(NC(=O)NC3CCCCC3)ccc2O[C@H]1CN(C)Cc1ccc2c(c1)OCO2	-7
CC1CCc2sc3ncnc(NCCN4CCOCC4)c3c2C1 (stereo unspecified)	21
Cc1cc(/C=C2/SC(=O)N(C(C)C)C2=O)c(C)n1-c1ccncc1	-5
C[C@@H]1CN([C@H](C)CO)C(=O)c2cccc(NC(=O)Nc3ccccc3)c2O[C@H]1CN(C)S(=O)(=O)c1cccs1	0
C[C@@H]1CN([C@@H](C)CO)C(=O)c2cccc(NC(=O)Nc3ccc(C(F)(F)F)cc3)c2O[C@@H]1CN(C)Cc1ccc(C(=O)O)cc1	-12
C[C@H]1CN([C@@H](C)CO)C(=O)Cc2cc(NC(=O)Cc3ccccc3)ccc2O[C@H]1CN(C)Cc1ccc(-c2ccccc2)cc1	99*
C[C@@H]1CN([C@@H](C)CO)C(=O)Cc2cc(NC(=O)Cn3cnnn3)ccc2O[C@@H]1CN(C)S(=O)(=O)c1cccs1	3
C[C@@H]1CN([C@H](C)CO)C(=O)c2cc(NS(=O)(=O)c3ccccc3)ccc2O[C@@H]1CN(C)Cc1ccccc1	-6

Next entries
SMILES	NOMO-1 viab
Cc1ccc(-c2nnc(SCC(=O)Nc3c(C)cc(C)cc3C)o2)cc1	29
COc1ccc(NC(=O)N(C)C[C@@H]2Oc3ccc(NS(=O)(=O)c4cn(C)cn4)cc3C(=O)N([C@@H](C)CO)C[C@@H]2C)cc1	0
Cc1ccc(S(=O)(=O)Nc2cccc3c2O[C@H](CN(C)CC2CCCCC2)[C@@H](C)CN([C@@H](C)CO)C3=O)cc1	-9
COc1ccc(OCc2nc3ccccc3n2Cc2c(F)cccc2Cl)cc1	25
C[C@@H]1CN([C@H](C)CO)C(=O)c2cc(NC(=O)NC3CCCCC3)ccc2O[C@@H]1CN(C)Cc1ccc(Oc2ccccc2)cc1	64
COc1ccc(NC(=O)N(C)C[C@H]2Oc3c(NC(=O)c4cc(C)nn4C)cccc3C(=O)N([C@@H](C)CO)C[C@H]2C)cc1	48
C[C@@H]1CN([C@H](C)CO)C(=O)Cc2cc(NS(=O)(=O)c3ccccc3)ccc2O[C@H]1CN(C)Cc1ccncc1	29
N=C1CCCN1CC(=O)c1ccc(Br)cc1	-13
Cc1ccc(S(=O)(=O)N2CCOCC2)cc1NC(=O)c1cccc(S(=O)(=O)N2CCCC2)c1	7
C[C@@H]1CCCCO[C@@H](CN(C)C(=O)C2CCCCC2)[C@@H](C)CN([C@H](C)CO)C(=O)c2cc(NC(=O)C3CCCCC3)ccc2O1	14
O=C(CSc1nnc(-c2ccc(Cl)cc2)o1)N1c2ccccc2Sc2ccccc21	12
COc1ccccc1NC(=O)Cn1nc([N+](=O)[O-])c(Br)c1C	14
C[C@H](CO)N1C[C@H](C)[C@@H](CN(C)Cc2ccncc2)Oc2ccc(NC(=O)Nc3cccc4ccccc34)cc2C1=O	12
C[C@@H]1CCCCO[C@@H](CN(C)C(=O)c2ccncc2)[C@@H](C)CN([C@H](C)CO)C(=O)c2cc(NS(C)(=O)=O)ccc2O1	-3
Cc1ccc(S(=O)(=O)N(C)C[C@@H]2Oc3ccc(NS(=O)(=O)c4ccc(F)cc4)cc3C(=O)N([C@H](C)CO)C[C@H]2C)cc1	13
CSc1nc2ccccc2c(=O)n1CC(=O)C(C)(C)C	-5
